# NPYLR7 ag: activates Aedes aegypti NPYLR7 receptor. hit rate 0.15% among 270,000. activation, % at 10 µM. HEK293T NPYLR7/Galpha15, GCaMP6s calcium fluorescence; in the data active = activation above about 40%;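 note: 0% = vehicle and 100% = reference agonist at the receptor; some compounds past the cut are filed as inactive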
# NPYLR7 ag max-min: recorded beside NPYLR7 ag, whose call it bears; activation, %; measured here: Max-Min RFU normalised activation; some inactives read as strong as hits;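 span of the calcium signal over five minutes; 0% = vehicle and 100% = native peptide agonist; compound fluorescence can raise it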
# Active calls of the source: *; & = joins results of further samples.
No.	SMILES	NPYLR7 ag max-min	NPYLR7 ag
1	Cc1cc(C)nc(NC(=O)/C=C/c2ccccc2)n1	1	13
2	CCC(CNC(=O)c1cccc(S(=O)(=O)NC)c1)c1ccccc1 (stereo not drawn)	-2	1
3	CCC(C)NCc1csc(COc2ccccc2OC)n1 (stereo not drawn)	34	32
4	CCN1CCN(CC(O)COc2ccc(CN3CCN(C)CC3)cc2OC)CC1 (stereo not drawn)	1	6
5	CCN(C)c1c(C)nc2c(OCc3ccc(OC(F)F)cc3)cccn12	-5	6
6	Cc1cc(C)cc(COc2coc(CN3CCN(S(=O)(=O)c4ccc(F)c(Cl)c4)CC3)cc2=O)c1	-5	0
7	O=C1C[C@H]2CC[C@@H](CN1)N2C(=O)COc1ncnc2ccccc12	-15	-6
8	O=C(NCC(=O)N(Cc1ccccc1)C(C(=O)Nc1ccccc1)c1ccncc1)c1ccccc1 (stereo not drawn)	14	6

# Some of the entries so far, with one line to a screen:
5	CCN(C)c1c(C)nc2c(OCc3ccc(OC(F)F)cc3)cccn12
6	Cc1cc(C)cc(COc2coc(CN3CCN(S(=O)(=O)c4ccc(F)c(Cl)c4)CC3)cc2=O)c1

Assay by compound,5,6
NPYLR7 ag max-min,-5,-5
NPYLR7 ag,6,0

# Continuation:
No.	SMILES	NPYLR7 ag max-min	NPYLR7 ag
9	Cc1nc(SCC(=O)Nc2cncs2)c2c(C)c(C)sc2n1	15	20
10	Cn1cc(CN2CCN(c3ncccn3)CC2)c(-c2cccc(Cl)c2)n1	12	20
11	CC(C)(C)n1nc2c(c1NC(=O)Cc1cccs1)CSC2	-2	-2
12	COc1ccccc1CNC(=O)c1c(OC)cc(=O)n2c1CCN(Cc1ccc3c(c1)CCO3)CC2	7	23
13	c1ccc2[nH]c(NN=C3CCCCCC3)nc2c1	-14	-8
14	COc1ccc(CCOC(=O)C2CCCCN2C(=O)C(C)(C)Oc2ccc(C(N)=O)cc2)cc1OC (stereo not drawn)	-25	-21
15	Cc1c(C(=O)NCc2cccnc2)sc(=O)n1Cc1ccc(S(=O)(=O)N(C)C)cc1	6	12
16	CC(=O)N(C)C1CCN(S(=O)(=O)c2ccc(S(C)(=O)=O)cc2)CC1	-3	-1
17	COc1cccc(-c2nn(CC(=O)NCCc3ccccc3)c(=O)c3nc(C)sc23)c1	2	4
18	CC(C)c1c(C(=O)NCc2ccncc2)cnn1-c1cccc(F)c1	-5	-8
19	Cc1ccc(CN2CCC(CN(C)CC3CC=CCC3)CC2)o1 (stereo not drawn)	7	16
20	CC1Sc2ccc(S(C)(=O)=O)cc2N(Cc2ccccc2C#N)C1=O (stereo not drawn)	1	3
21	COc1cc(Cl)c(C)cc1NC(C)C(=O)N1CCOCC1 (stereo not drawn)	8	9
22	CCOc1ccccc1N1CCN(C(=O)c2cc(-c3ccc(C(C)(C)C)cc3)nc3ccccc23)CC1	-1	7
23	O=c1[nH]c(=O)n(CC2CCCO2)c2nccc(-c3ccc4c(c3)OCO4)c12 (stereo not drawn)	36	-3
24	COc1cc(NC(=O)COC(=O)c2ccco2)c(C)cc1[N+](=O)[O-]	5	10
25	Cc1nonc1N1CCN(Cc2nc(-c3cccc(C(F)(F)F)c3)oc2C)CC1	-13	-8
26	c1cc2ccc(CNC3CC3)cc2[nH]1	-19	-13
27	COCCN1C(=O)C2C(c3ccccc3O)NN(C)C2C1=O (stereo not drawn)	-1	-4
28	COc1ccc(/C=C/C(=O)Nc2ccc(NC3CCCCC3)c3c2C(=O)c2ccccc2C3=O)cc1	9	13
29	COCCOC(=O)c1c(C)nc2ccccc2c1-c1ccccc1	6	2
30	O=C(NCc1ccccc1)c1csc(Nc2ccccc2)n1	2	8
31	O=C1OC(CNS(=O)(=O)c2cccnc2)CN1c1ccccc1 (stereo not drawn)	1	2
32	CC(C)Nc1nc(NC2CCCC2)nc(N2CCOCC2)n1	4	5
33	CC(C)Cc1ncc(CN)s1	6	13
34	N#Cc1cc(NC(=O)c2ccccc2)ccc1N1CCC(O)CC1	-22	-25
35	CCc1ccccc1-c1c(-c2ccccc2)ncn1CC[C@@H](C)CO	6	4
36	CCOC(=O)C1=C(O)/C(=C\c2ccc3c(c2)OCCO3)SC1=Nc1cccc([N+](=O)[O-])c1	6	8
37	CCCN(CC(=O)N(CCc1c[nH]c2ccccc12)Cc1ccc(C(C)(C)C)cc1)C(=O)NCC	4	-2
38	CC1(C(=O)Nc2cccc(NS(C)(=O)=O)c2)CCN1CCc1ccccc1 (stereo not drawn)	1	4
39	C=CCOC(=O)C1C(C)=Nc2nc(SCC(C)C)[nH]c(=O)c2C1c1sccc1C (stereo not drawn)	8	10
40	CC1C(=O)N(c2ccc(Oc3ccccc3)cc2)CCN1C(=O)COc1ccc(Cl)cc1 (stereo not drawn)	-7	-12
41	COc1ccc(C(=O)N2N=C3CCCCC3C2(O)C(F)(F)F)cc1 (stereo not drawn)	-2	-1
42	O=C(NCC1CCCS1)c1sccc1Br (stereo not drawn)	0&2	1&5
43	COC1CCCN(S(=O)(=O)c2sc3c(c2C(=O)O)CCNC3)C1 (stereo not drawn)	-2	0
44	Cn1cc(Br)cc1C(=O)NNC(=O)CCN1CCOC1=O	-2	2
45	CC1=C(C(=O)Nc2ccc(C)cc2C)C(c2cccs2)N2N=CC(C#N)C2=N1 (stereo not drawn)	-5	-2
46	Fc1ccc(Nc2nc(NCCc3ccccc3)nc3nccnc23)cc1	2	3
47	c1ccc(-c2nnc(CSc3ncnc4c3oc3ccccc34)o2)cc1	-5	-5
48	CCC(=O)C(=O)N1CCC(Cc2nncn2-c2ccccc2)CC1	-4	0

# A few values from the entries so far.
# entry 47 in NPYLR7 ag max-min shows -5
# entry 41 in NPYLR7 ag shows -1
# entry 46 in NPYLR7 ag max-min shows 2

# New compounds follow
No.	SMILES	NPYLR7 ag max-min	NPYLR7 ag
49	O=C(c1ccccc1-n1cccn1)N1CCCC(N2CCN(c3ccccc3F)CC2)C1 (stereo not drawn)	3	3
50	COc1ccc(Cc2nnc(NCCO)[nH]c2=O)cc1	5	10
51	COc1cccc(CCC(=O)N2CCC(n3c(-c4ccccc4)nc4ccc(F)cc43)CC2)c1	8	2
52	COc1cc(Br)c(S(=O)(=O)N(C)CC(N)=O)cc1OC	5	8
53	CCC(=O)C1(NC(=O)Cn2nc(C)cc2C)CCCCC1	-1	3
54	CCc1cccc2sc(N(CCCN3CCOCC3)C(=O)CS(=O)(=O)c3ccccc3)nc12	-4	3
55	Cn1nnc2c(=O)n(CC(=O)N3CCOCC3)cnc21	18	1
56	Cc1ccccc1C1CC(c2cccc(F)c2)=NN1C(=O)CN1CCCC1 (stereo not drawn)	20	25
57	CC1=C(C(=O)OCc2ccccc2)C(c2cn(-c3ccccc3)nc2-c2ccc([N+](=O)[O-])cc2)C(C(=O)OCc2ccccc2)=C(C)N1	-18	-12
58	CC(C)(C)NC(=O)COc1coc(CN2CCN(c3ccccc3)CC2)cc1=O	46	-1
59	Cc1ccsc1/C=C1N=C(/C=C/c2ccc(Cl)cc2)OC\1=O	5	7
60	COCCNC(=O)[C@@]1(OCc2ccccc2)CC(OCc2cccc(C(F)(F)F)c2)[C@@H]2OC(C)(C)O[C@@H]2C1 (stereo partly drawn)	13	6
61	O=C(CC(c1ccc(F)cc1F)c1c[nH]c2ccccc12)NCc1ccco1 (stereo not drawn)	4	-1
62	COc1ccc(N2CCn3c(SCCC(C)C)nnc32)cc1	3	4
63	O=C(O)C1CN(C(=O)CCCc2cn[nH]c2)CCN1 (stereo not drawn)	-2	5
64	Cc1nc(C)c(CC(=O)NC(C)c2cnn(-c3cccc4ccccc34)c2C)s1 (stereo not drawn)	-2&7	4&20
65	COCCCn1c(CN2CCSCC2)cnc1S(=O)(=O)C1CCCC1	5	8
66	Fc1cccc(-c2nc3c(NCCc4ccccn4)nccc3[nH]2)c1	-11	-6
67	CCCc1[nH]nc2c1C(C1CC=CCC1)C(C#N)C(=N)O2 (stereo not drawn)	1&0	4&-1
68	COC(=O)c1c(N)sc2c1CCCC2	-3&4	-3&5
69	COc1ccc(F)cc1CN1CCC(CNS(C)(=O)=O)C1 (stereo not drawn)	5	8
70	O=C(Nc1ccccc1)c1cccc(CN2CCC(Oc3cccnc3)C2)c1 (stereo not drawn)	3	4
71	N#CCNC(=O)c1ccc(-c2ccnc(Nc3ccc(N4CCOCC4)cc3)n2)cc1	-11	-4
72	Cc1nc(-c2ccccc2)sc1C(=O)Nc1c(C)nc2sc(C)c(C)n2c1=O	12	14

# Brought forward from above: seven entries, followed by the next part.
No.	SMILES	NPYLR7 ag max-min	NPYLR7 ag
66	Fc1cccc(-c2nc3c(NCCc4ccccn4)nccc3[nH]2)c1	-11	-6
67	CCCc1[nH]nc2c1C(C1CC=CCC1)C(C#N)C(=N)O2 (stereo not drawn)	1&0	4&-1
68	COC(=O)c1c(N)sc2c1CCCC2	-3&4	-3&5
69	COc1ccc(F)cc1CN1CCC(CNS(C)(=O)=O)C1 (stereo not drawn)	5	8
70	O=C(Nc1ccccc1)c1cccc(CN2CCC(Oc3cccnc3)C2)c1 (stereo not drawn)	3	4
71	N#CCNC(=O)c1ccc(-c2ccnc(Nc3ccc(N4CCOCC4)cc3)n2)cc1	-11	-4
72	Cc1nc(-c2ccccc2)sc1C(=O)Nc1c(C)nc2sc(C)c(C)n2c1=O	12	14
73	Cc1ccccc1S(=O)(=O)NC(=O)C1(C)CCN1C(=O)CCC1CCCC1 (stereo not drawn)	-5	-2
74	Cc1nnsc1C(=O)N1CCc2c(nc(-c3ccncc3)nc2N(C)C)C1	-9	-5
75	CC(=O)Nc1cnc(-c2cccc(C(=O)N(C)C)c2)cn1	1	4
76	C=CCNC(=O)C(C1CCCC1)N1CCN(C(=O)c2cccs2)CC1 (stereo not drawn)	-3	-9
77	CCOC(=O)c1c(NC(=O)Cc2ccc(OC)cc2)sc(C(=O)Nc2cccc(Cl)c2C)c1C	-2	-7
78	CC1(C(=O)O)CCC(C(=O)O)C1(C)C (stereo not drawn)	3	5
79	C=CCC1(CC=C)CCCN1C(=O)C1CCC(=O)N(Cc2ccccn2)C1 (stereo not drawn)	-6	-6
80	N#Cc1nc(-c2ccco2)oc1N1CCC(C(=O)NCC2CC2)CC1	3	-1
81	CCCCN(CCCC)C(=O)C1CC(=O)OC12CCOC(C)(C)C2 (stereo not drawn)	8	16
82	Cn1nc(C(=O)Nc2ccc3c(c2)nc2n3CCCCC2)ccc1=O	-4	-4
83	N#CCCCCN1CCn2c(nnc2-c2ccccc2)C1	-3	0
84	CCOCCCN(CC(=O)N(CCc1ccccc1)Cc1ccc(C)o1)C(=O)C1CCCC1	0	-1
85	Cc1c[nH]c(=O)n1-c1ccccc1NC(=O)c1cc(-c2ccccc2F)on1	4	2
86	CN1CCC(N(C)C(=O)c2cnn(-c3ccc(C(F)(F)F)cc3)c2N)CC1	6	0
87	Cc1ccccc1Nc1nnc(C)c(=O)n1N	6	7
88	CCCCC[C@H](O)/C=C/[C@H]1[C@H](O)CC(=O)[C@@H]1CCCCCCC(=O)O	4&23	12&37
89	Cc1ccccc1-n1ncc2c1CC(C)(C)CC2NC(=O)Cn1c(=O)oc2ccccc21 (stereo not drawn)	1	2
90	COc1ccc(CCNS(=O)(=O)c2cc(F)ccc2OC)cc1OC	3	0
91	CC#CC(=O)N1CCc2c([nH]c3ccccc23)C1c1ccc(F)c(OC)c1 (stereo not drawn)	-4	-2
92	Cc1ccc(-c2nc(C=Nc3ccccc3I)c(O)o2)cc1	-8	-3
93	Cc1cc(C)n2c(SCCOc3ccc(Br)cc3)nnc2n1	1	2
94	CN(Cc1ccn[nH]1)c1nccc(C2CCCC2)n1	-9	-4
95	COCCN(CC(=O)N(Cc1ccc(F)cc1)Cc1cccs1)C(=O)COc1ccc(Cl)cc1	0	-3
96	CCOC(=O)C(C)Sc1ncnc2c1nnn2-c1ccc(F)cc1 (stereo not drawn)	18	16
97	Cc1[nH]nc(-c2ccc(OCCN3CC(C)OC(C)C3)cc2O)c1-c1ccccc1 (stereo not drawn)	2	4
98	COCCCn1c(-c2ccc(C(C)(C)C)cc2)nc2oc3ccccc3c(=O)c2c1=O	1	3
99	O=C(COC(=O)C1=Cc2cccc(O)c2OC1)Nc1cccc(Cl)c1	0	1
100	CCCC(=O)N1CCC1(C)C(=O)Nc1cc(C)nc2ccccc12 (stereo not drawn)	0	4
101	Cc1cccc2nc(-c3ccccc3F)c(NC(C)(C)CC(C)(C)C)n12	-3	-5
102	CCOC(=O)Cc1c(C)nc2ncnn2c1N1CCN(c2c(Cl)cncc2Cl)CC1	16	28
103	CC(C)C(NCc1ccccc1O)c1ccccc1 (stereo not drawn)	-3	-3
104	Cc1nc(N2CCCC(C)C2)c2cnn(-c3ccc(F)cc3)c2n1 (stereo not drawn)	14	1

# From entry 101 as far as 103, as listed above:
No.	SMILES	NPYLR7 ag max-min	NPYLR7 ag
101	Cc1cccc2nc(-c3ccccc3F)c(NC(C)(C)CC(C)(C)C)n12	-3	-5
102	CCOC(=O)Cc1c(C)nc2ncnn2c1N1CCN(c2c(Cl)cncc2Cl)CC1	16	28
103	CC(C)C(NCc1ccccc1O)c1ccccc1 (stereo not drawn)	-3	-3

# (cont.)
No.	SMILES	NPYLR7 ag max-min	NPYLR7 ag
105	COc1ccc(-c2csc(-n3[nH]c(-c4ccccc4)c(N=Nc4cccc(Cl)c4)c3=O)n2)cc1	3	-8
106	Cc1ccc(Cl)cc1N1CCN(C(=O)c2ccc(=O)[nH]c2)CC1	-2	-3
107	O=C(O)CP(=O)(O)O	16	1
108	CCCCOc1ccc(OCCSc2nc3ccccc3n2CCC(=O)O)cc1	-10	-5
109	COc1ccc(-n2nnc(C(=O)OCc3cccc(F)c3)c2C)cc1	-21	-19

# Bioassay records from PubChem BioAssay.

# Some of the compounds tested, so the mix of outcomes need not match the whole.
